Assay outcomes deposited in PubChem BioAssay by National Center for Advancing Translational Sciences (NCATS).
Rango dissoc inh: qHTS Assay for Inhibitors of RanGTP induced Rango (Ran-regulated importin-beta cargo) - Importin beta complex dissociation | Snurportin-1 (Homo sapiens) + GTP-binding nuclear protein Ran (Homo sapiens) + Importin … | Biochemical FRET Rango-importin beta, RanGTP-induced dissociation | Potency, µM (top dose mostly 46.1 µM), without a hit: top-dose activity change, negative = inhibition | 340,000 tested, 0.071% active | AID 540253, 2011; active means falling FRET ratio curve, often poorly fitted, with flat reads before Ran was added; inconclusive means other falling curves, or compound fluorescence or quenching; inactive means flat or rising ratio curve;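 further: potency means the concentration at half of the fitted maximal effect; % of control where 0% means no effect; nearly all actives have a fitted effect of over 45% in size; -100% = wells without RanGTP and RCC1; the record marks most hits as doubtful in a second field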
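Two FRET readings bracket the reaction: one 5 min after compound meets Rango–importin beta, another 45 min after RanGTP-RCC1 (0.6 uM Ran, 0.2 uM RCC1, 2 mM GTP) is added. Only the second defines inhibition.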
Rango-impB inh: qHTS Assay for Inhibitors of Rango (Ran-regulated importin-beta cargo) - Importin beta complex formation | Importin subunit beta-1 (Homo sapiens), Q14974 | Rango CFP/YFP FRET sensor + importin beta, 45 min | Potency, µM (highest dose often 92.2 µM), for the others: at the top dose inhibition of complex formation | 340,000 tested, 0.031% active | AID 540263, 2011; active = rising FRET ratio curve, often small or poorly fitted; inconclusive = mostly compound fluorescence or quenching in the first reads; inactive = flat curves in all reads;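 further: potency means the concentration at half of the fitted maximal effect; 0% = DMSO wells and 100% = buffer wells lacking importin beta; nearly all actives have a fitted effect of over 15% in size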
Target sequence (Q14974 whole entry, looked up): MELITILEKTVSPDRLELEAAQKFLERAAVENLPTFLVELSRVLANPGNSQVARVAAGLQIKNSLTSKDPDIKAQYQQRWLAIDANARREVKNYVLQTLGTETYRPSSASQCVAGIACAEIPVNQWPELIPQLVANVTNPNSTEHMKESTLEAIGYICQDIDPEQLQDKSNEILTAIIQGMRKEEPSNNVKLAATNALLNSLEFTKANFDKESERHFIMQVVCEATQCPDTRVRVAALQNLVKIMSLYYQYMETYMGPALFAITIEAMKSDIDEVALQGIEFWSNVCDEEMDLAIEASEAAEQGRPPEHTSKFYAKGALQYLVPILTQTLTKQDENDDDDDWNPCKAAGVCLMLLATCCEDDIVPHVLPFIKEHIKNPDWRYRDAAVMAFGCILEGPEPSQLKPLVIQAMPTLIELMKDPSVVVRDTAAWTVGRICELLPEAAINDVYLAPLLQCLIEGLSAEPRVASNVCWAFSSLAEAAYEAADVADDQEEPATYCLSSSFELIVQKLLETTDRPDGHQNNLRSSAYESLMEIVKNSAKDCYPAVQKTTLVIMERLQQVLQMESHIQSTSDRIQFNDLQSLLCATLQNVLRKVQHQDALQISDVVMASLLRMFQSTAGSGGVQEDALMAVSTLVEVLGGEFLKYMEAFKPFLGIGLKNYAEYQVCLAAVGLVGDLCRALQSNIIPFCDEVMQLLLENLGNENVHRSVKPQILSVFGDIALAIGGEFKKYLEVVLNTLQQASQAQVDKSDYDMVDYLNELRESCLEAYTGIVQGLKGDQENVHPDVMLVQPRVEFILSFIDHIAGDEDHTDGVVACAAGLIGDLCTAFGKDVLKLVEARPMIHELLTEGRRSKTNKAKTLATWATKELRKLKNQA
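FRET biosensor Rango (snurportin 1 IBB between N-terminal EYFP and C-terminal Cerulean), 50 nM in PBS/1 mM DTT/0.02% Tween-20/0.1% BSA, preincubated 5 min RT with compound; 0.125 microM importin beta added, 45 min RT, CFP/YFP FRET ratio read.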
miR-21 FLuc: qHTS Assay for Modulators of miRNAs and/orActivators of miR-21. HeLa miR-21 FLuc reporter, luciferase, 48 h. Potency, µM (series often up to 38.3 µM), for inactives: at the top dose reporter change, positive = more light. 340,000 tested, under 10 active. AID 2288, 2010; active = well fitted rising curve with a large enough effect; inconclusive = small, poorly fitted or top-dose-only effect; inactive = no such curve, though single readings can be large or run the other way;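 further: % of control where 0% means no effect; miR-21 action dims this reporter so a rising signal means less miR-21 action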
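Using DMEM plus 10% FBS, HeLa miR-21-FLuc cells are incubated with test compounds (final up to about 40uM) for 48 hours; firefly luciferase signal is then imaged following reagent-mediated lysis.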
GLA inh pH 4.5: qHTS Assay for Inhibitors of Human alpha-Galactosidase at pH 4.5. Alpha-galactosidase A (Homo sapiens), P06280. purified enzyme, 4-MU-alpha-Gal fluorescence, pH 4.5. activity change, negative = inhibition, % at 105 µM. 230,000 tested, under 10 active; inconclusive = small, poorly fitted or top-dose-only inhibition, or a rising curve; inactive = flat fitted curve, though single readings scatter; no compound was filed as active;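 further: 0% = full activity with enzyme and -100% = basal without enzyme; dose as in the result columns while the protocol names 77 µM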
Numbers without * were called inactive; ? = inconclusive; / = not tested or not shown; [ ] = another dose, or the depositor's remark.

SMILES,Rango dissoc inh,Rango-impB inh,miR-21 FLuc,GLA inh pH 4.5
CCS(=O)(=O)N1CCN(Cc2c[nH]c3ccccc23)CC1,-9.8%,-1.7%,3.7%,0.4
COc1ccc(N(C)C(=O)c2cnc(N3CCN(c4ncccn4)CC3)c3ccccc23)cc1,-13.9%,-1.4%,-0.4%,7.1
CCCCCn1c(=N)c(S(=O)(=O)c2ccc(Cl)cc2)cc2c(=O)n3cccc(C)c3nc21,?,?,-0.5%,/
CC(=O)c1ccc(N2CCN(C(=O)C3CCCN3S(=O)(=O)c3cccc4nsnc34)CC2)cc1 (stereo not given),20.4%,-2.1%,-5.4%,/
O=C(c1ccco1)N1CCN(CC(O)Cn2c3ccccc3c3ccccc32)CC1 (stereo not given),0.6%,3.3%,13.3%,-19.8
Cc1cc(C)cc(OCCCCCNCCO)c1,1.5%,1.6%,-9.1%,0.3
O=C(CC1C[C@H](C(=O)N2CCOCC2)[C@@]2(CCC3CCCC3)c3[nH]c4ccccc4c3CCN2C1=O)NCc1cccc(C(F)(F)F)c1 (stereo not given in full),-6.2%,5.9%,/,/
CCCCCOc1ccc(/C=C/c2c([N+](=O)[O-])c(=O)n(C)c(=O)n2C)cc1,-14.9%,-1.7%,4.7%,/
O=C(O)C(CO)N=Cc1c(O)c2ccccc2oc1=O (stereo not given),-6.9%,-1.9%,11.8%,5.9
CCOC(=O)c1ccc(NCc2ccc3c(c2)OCO3)cc1,3.2%,-0.6%,-30.0%,-5.4
Cc1ccc(C(=O)COC(=O)CCC(=O)NC2CCCCC2)cc1[N+](=O)[O-],51.9%,1.3%,-0.7%,-1.3
O=C(c1ccco1)N1CCCN(C(=O)c2ccco2)CC1,9.6%,2.6%,0.4%,-4.0
O=c1[nH]c(SCc2ccc([N+](=O)[O-])cc2)nc2[nH]ncc12,0.9%,-0.2%,-40.3%,14.1
Cc1cccc(NC(=O)Cn2nc(C(F)(F)F)cc2C2CC2)c1,-10.5%,0.2%,8.3%,-6.6
Cc1ccc2ncccc2c1[N+](=O)[O-],-1.1%,4.4%,-5.0%,1.3
CCOc1ccc(CNc2nnnn2C)cc1OC,25.8%,-1.1%,-2.3%,/
O=C(CN1CCN(Cc2ccccc2F)C1=O)NCc1ccco1,4.2%,4.7%,6.1%,-14.6
Cc1cnc(NC(=O)c2ccc(OCC3CCCO3)cc2)s1 (stereo not given),2.6%,0.1%,22.3%,3.1
OC(Cn1cncn1)c1ccc(Cl)cc1 (stereo not given),0.0%,0.6%,-5.5%,13.7
Cc1ccc(NC(=O)c2ccc(S(=O)(=O)NCc3cccnc3)cc2)c(C)c1,-3.6%,-0.3%,5.4%,/
Nc1cc(=O)nc(SCC(=O)N(C2CCCCC2)C2CCCCC2)n1-c1ccccc1,-13.2%,-5.3%,7.4%,-12.8
CCCCN(C)C1CCN(C(=S)Nc2ccc(OC)cc2)CC1,-1.7%,-2.3%,-6.3%,4.5[21.1 µM]
CCN(CC(=O)Nc1c(F)cccc1F)C(=O)C1CC1C (stereo not given),-11.9%,-1.1%,/,/
CCc1ccccc1NC(=S)N(CCN1CCCCC1)Cc1ccco1,5.9%,-6.0%,-1.8%,-1.0
CC(C)[C@H](NC(=O)c1ccc(C(C)(C)C)cc1)C(=O)Nc1nnc(C2CC2)s1,-11.6%,?,-7.0%,-0.7
CN(Cc1ccccc1)C(=O)c1ncn(C)c1C(=O)N(C)Cc1ccccc1,8.3%,-1.6%,/,/
COc1cc(/C=N/NC(=O)CC23CC4CC(CC(C4)C2)C3)cc(Br)c1OCC(=O)N(C)C,-0.9%,3.5%,12.0%,?
Cc1nc2c3cc(F)ccc3n(Cc3ccccc3)c2s1,-6.1%,0.9%,7.0%,-3.4
O=C(Cn1ncc2c([nH]c3ccccc32)c1=O)N1CCN(c2ccccn2)CC1,0.0%,?,0.4%,/
O=C(Nc1ncc(Cc2cccc(Cl)c2)s1)C1CCCO1 (stereo not given),?,-0.2%,-74.3%,10.2
CCN(CC)S(=O)(=O)c1ccc(Cl)c(C(=O)Nc2nncs2)c1,4.1%,1.5%,-0.8%,-1.9
Cc1ccc(C(=O)NCC(=O)N2CCN(S(=O)(=O)c3cccs3)CC2)s1,7.2%,-2.7%,-0.4%,-6.9
CCC(c1nnnn1Cc1ccccc1)N(Cc1ccco1)Cc1cc2cc(OC)ccc2[nH]c1=O (stereo not given),-8.1%,5.8%,-18.5%,-6.2
Cc1ccc2oc(-c3ccc(NC(=O)c4cccnc4)cc3)nc2c1,-13.0%,1.4%,0.4%,-6.2
CCN(CC)C(=O)[C@H]1CC(CC(=O)NCCc2ccccn2)C(=O)N2CCc3c([nH]c4ccc(OC)cc34)[C@]12C (stereo not given in full),-2.2%,-0.7%,/,/
CC(C)c1ccc(NC(=S)N2CCN(C)CC2)cc1,6.7%,4.0%,-32.6%,/
O=[N+]([O-])c1ccc(S(=O)(=O)N2CCSC2c2ccco2)cc1 (stereo not given),11.6%,-1.0%,-4.0%,-0.7
O=C(O)C1CCCCC1C(=O)Nc1cccc2ccccc12 (stereo not given),1.4%,1.9%,-1.5%,-6.3
CCN(Cc1cnn(C)c1)C(=O)C1CCC(=O)N(CCc2ccc(OC)cc2)C1 (stereo not given),?,3.6%,-2.5%,/
CCOc1ccc(C(=O)NCC(=O)N2CCCC2)cc1,13.8%,2.2%,-7.6%,/
CCN(CC)CCCNC(=O)c1ccc(OCC(=O)Nc2ccccc2C(F)(F)F)c(OC)c1,10.1%,0.0%,-9.1%,-4.3
C#CCO[C@@H]1C[C@H](n2cnc3c(=O)[nH]c(NC(=O)C(C)C)nc32)O[C@@H]1CO,13.7%,1.8%,-0.6%,8.8
COc1ccc(C(=O)NC2CCN(CC(=O)NCc3cccc(OC)c3)CC2)cc1,1.1%,-0.3%,-3.1%,/
O=C(NC(NC(=S)Nc1ccc(Cl)cc1Cl)C(Cl)(Cl)Cl)c1cccc([N+](=O)[O-])c1 (stereo not given),-2.1%,-4.6%,?,-15.5
CCOc1ccc(CN(C)C(=O)NNC(=O)c2ccc(C)cc2)cc1OC,-8.8%,-2.5%,1.5%,/
Fc1ccc(COc2cccc3cccnc23)cc1,4.1%,3.0%,-51.3%,2.2
NNC(=O)c1cc2c(N3CCC(Cc4ccccc4)CC3)ncnc2s1,20.4%,2.0%,11.6%,7.6
COCCN1C(=O)C(CC(=O)Nc2ccc(C(=O)O)cc2)SC1=Nc1ccccc1 (stereo not given),14.7%,0.1%,1.5%,-4.8
Cc1ccc(-c2nn(-c3ccccc3)cc2C(=O)N2CCN(C3CCS(=O)(=O)C3)CC2)cc1 (stereo not given),?,?,/,/
Cc1ccc(CN2CCN(C(=O)CCN3C(=O)c4ccccc4C3=O)CC2)cc1,9.0%,-5.1%,-3.0%,-2.6

Going on with the list.
SMILES,Rango dissoc inh,Rango-impB inh,miR-21 FLuc,GLA inh pH 4.5
C=CCNc1ncnc2c1[nH]c1ccc(Cl)cc12,0.2%,0.2%,-9.0%,-4.3
O=C(Nn1c(=O)[nH]c2ccsc2c1=O)c1ccccc1,1.0%,0.4%,-22.5%,4.8
COc1ccc(C(=O)NCCCCCCNC(=O)c2ccc(OC)cc2)cc1,1.3%,-2.0%,-17.5%,/
Cc1cc(C)c(NC(=O)c2sc3nc4c(cc3c2N)C(=O)CC(C)(C)C4)c(C)c1,6.2%,-0.1%,-12.3%,?
COc1cc(/C=N/NC(=O)c2ccncc2)ccc1OCC(=O)Nc1ccc(C)c(C)c1,-1.8%,?,-19.6%,/
CCN1C(=NCCCOC(C)C)N[C@@H](CCc2ccccc2)[C@H](C(=O)NCCCOC(C)C)[C@H]1C,?,?,18.1%,/
COc1ccc(-n2c(O)c(/C=N/Nc3nc(C)cc(C)n3)c3ccccc3c2=O)cc1OC,?,?,6.5%,-7.2
CC(C)=CCN1CCN(Cc2cnc(N3CCCC3)s2)CC1CCO (stereo not given),-1.2%,-2.4%,-2.2%,-2.0
O=C(CS(=O)(=O)c1cn(CC(=O)N2CCOCC2)c2ccccc12)NCc1ccc(F)cc1,-12.7%,-0.3%,0.1%,/
CC(C)NC(=O)Cn1cc(C(=O)C(=O)N2CCOCC2)c2ccccc21,-4.1%,-2.4%,-3.3%,/
C=CCNC(=O)NC(=O)CN1C(=O)NC(c2ccccc2)(c2ccccc2)C1=O,16.4%,2.5%,8.7%,/
O=c1c(O)c(-c2cccs2)oc2ccc(Cl)cc12,?,?,-12.1%,5.0
Cc1cc(C)c2nc(Nc3nc(CSc4nc5ccccc5[nH]4)cc(=O)[nH]3)nc(C)c2c1,-5.4%,-0.3%,/,/
COc1cc(/C=C2/SC(=O)NC2=O)ccc1OC(=O)c1ccco1,-15.1%,2.9%,-1.3%,/
NS(=O)(=O)c1ccc(NC(=O)COC(=O)COc2ccccc2)cc1,10.9%,-0.9%,-2.6%,2.2
CCCN1CCN(C(=S)Nc2ccc([N+](=O)[O-])cc2)CC1,7.4%,-5.3%,-6.2%,-8.3
COc1ccc(CN2C(=NC(=O)C3CCCCC3)SC3CS(=O)(=O)CC32)cc1 (stereo not given),13.5%,6.0%,-0.2%,/
O=C(C/C=N/OCc1ccc(F)cc1Cl)c1cnc(-c2ccccc2)s1,1.7%,-1.6%,-4.4%,6.3
CCN1C[C@@H]2[C@@H]3C(=O)N(Cc4ccccc4)C(=O)[C@@H]3[C@](CC)(C1=O)N2C(=O)c1ccc(C(F)(F)F)cc1,-12.5%,?,/,/
Cc1c(Cl)c([N+](=O)[O-])nn1CC(=O)NC12CC3CC(CC(C3)C1)C2,0.8%,0.2%,-6.7%,-11.3
CN(C)c1ccc(C2Nc3ccccc3C(=O)N2NS(=O)(=O)c2ccccc2)cc1 (stereo not given),-0.6%,0.4%,-19.8%,-4.6
CCCCCCCNC(=O)C1(CC2CC(c3cccc(Br)c3)=NO2)CCN(C(=O)CCCCCBr)CC1 (stereo not given),-5.9%,-0.3%,/,/
CCN(CC(=O)Nc1ccc2c(c1)OCCO2)C(=O)/C=C/c1ccc([N+](=O)[O-])cc1,-6.6%,-4.0%,/,/
CC1CCCCC1NC(=O)COCc1cc(-c2cccs2)on1 (stereo not given),18.6%,-4.8%,-8.9%,/
Cc1nc(NC(C)C(=O)O)c2nc(C)oc2n1 (stereo not given),8.8%,-2.7%,2.6%,-8.9
CCn1c(=O)c([N+](=O)[O-])c(NCC(O)c2ccccc2)c2ccccc21 (stereo not given),1.9%,2.7%,-2.0%,-5.3
CCN(CC)CCn1c2c(c(SCC(=O)Nc3ccc(C)c(F)c3)nc1=O)CCC2,-1.6%,-0.8%,/,/
COc1ccccc1NC(=O)c1c(N=Cc2c(O)ccc3ccccc23)cnn1C,-10.4%,-0.6%,2.8%,-5.1
CCCN=C1N(CC)C[C@@H]2[C@@H]3C(=O)N(Cc4ccccc4)C(=O)[C@@H]3[C@](C)(C(=O)OC)N12,-1.6%,-0.5%,/,/

An excerpt, so the mix of outcomes need not match the whole.
